CtBP-E1A inh: inhibitors of CtBP/E1A interaction. AID 651724. AlphaScreen GST-E1A/His-CtBP binding, 1536-well; stronger effect = lower value; control for the full effect not named in the record. activity change, % (concentration not given with the values). 0.49% of 340,000 active; in the data active means activity change below about -65%; inconclusive means about -30% to -65%; inactive means above about -30%; also: % is scaled to controls: 0 for no effect and ±100 for the full control effect
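Protein mix (5X: 125 nM each GST-E1A, His-CtBP) was incubated with pinned compound 2 h at 37 deg C in dark, in 50 mM Tris pH 8.0 buffer with 300 mM NaCl. Glutathione donor and nickel acceptor beads followed; AlphaScreen signal read after 1 h.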
TRPV1 PAM: human TRPV1 potentiation. 0.02% of 320,000 active. potentiation, % at 8.33 µM. Q8NER1. TRPV1-expressing cells, Fluo-8 calcium influx, capsaicin EC20 potentiation; host cell line not named in the record; control for the full effect not named in the record; active means potentiation above 80%; inconclusive means 30% to 80%; inactive means below 30%; also: 0% is about no effect
Target sequence (Q8NER1 whole entry, looked up): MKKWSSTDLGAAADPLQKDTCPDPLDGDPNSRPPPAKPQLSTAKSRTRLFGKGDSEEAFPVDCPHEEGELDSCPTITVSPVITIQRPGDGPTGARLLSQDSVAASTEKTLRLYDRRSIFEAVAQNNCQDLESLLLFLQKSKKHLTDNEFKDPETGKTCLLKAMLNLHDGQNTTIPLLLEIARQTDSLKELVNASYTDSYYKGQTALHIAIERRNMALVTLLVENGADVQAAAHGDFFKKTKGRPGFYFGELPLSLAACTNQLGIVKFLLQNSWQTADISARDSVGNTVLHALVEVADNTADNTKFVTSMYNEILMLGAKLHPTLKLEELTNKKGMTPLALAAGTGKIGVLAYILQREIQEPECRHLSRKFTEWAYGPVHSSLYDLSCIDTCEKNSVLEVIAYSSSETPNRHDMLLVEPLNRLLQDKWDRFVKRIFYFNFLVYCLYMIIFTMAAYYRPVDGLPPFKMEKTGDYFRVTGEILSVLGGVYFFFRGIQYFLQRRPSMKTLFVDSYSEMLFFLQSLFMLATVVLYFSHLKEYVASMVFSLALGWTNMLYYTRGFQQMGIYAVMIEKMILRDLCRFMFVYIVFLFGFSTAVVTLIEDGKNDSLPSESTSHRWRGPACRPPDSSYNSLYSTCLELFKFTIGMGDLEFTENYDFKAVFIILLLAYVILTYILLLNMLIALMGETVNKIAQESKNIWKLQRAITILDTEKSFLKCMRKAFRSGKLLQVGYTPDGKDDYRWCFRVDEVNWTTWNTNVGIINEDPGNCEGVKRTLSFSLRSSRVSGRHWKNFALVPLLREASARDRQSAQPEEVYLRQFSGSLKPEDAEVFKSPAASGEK
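TRPV1-expressing cells were cultured overnight at 35.5C and loaded with Fluo-8 calcium dye for 40 to 90 min at room temperature. After a 10 s baseline, compound was added and calcium influx was read kinetically for 3 min (ex 480/em 520 nm).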
Menin-MLL FL inh: displaces fluorescein MLL peptide from human menin | AID 1766 | 290,000 tested, under 10 active | Fluorescence polarization, fluorescein-MLL peptide displacement from menin | FP activity change, % at 61.4 µM; inconclusive = falling polarisation curve, or a change in total fluorescence; inactive = total fluorescence flat and polarisation flat or rising; no compound was filed as active; the % refers to the polarisation; negative = inhibition;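 also: % of control where 0% means no effect; inhibitors lower the polarisation; unlabelled MLL peptide was the positive control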
Sfp PPTase inh: Sfp phosphopantetheinyl transferase inhibition | Q9F4F7 | Biochemical Sfp PPTase activity, qHTS | Potency, µM, for the others: max response, negative = inhibition, usual class: inhibitors | 3.5% of 310,000 active | AID 1490; active = well fitted inhibition curve with a large enough effect; inconclusive = small, poorly fitted or top-dose-only effect, or another doubt; inactive = no such curve, though single readings can be large or run the other way;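 also: the enzyme is Sfp with the accession as filed and its product quenches rhodamine fluorescence; potency is read from the fitted curve at half-maximal effect; 0% = enzyme reaction without inhibitor and -100% = no enzyme wells; top concentration of the series not given in the record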
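Buffer: 50 mM Hepes-Na pH 7.6, 10 mM MgCl2, 0.01% Nonidet P-40, 0.01% BSA. Enzyme 15 nM, pre-exposed to compound 15 min; substrates then added and fluorescence change tracked over 30 min.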
gsp ag: gsp mutant agonism. Potency, µM (titrated, usually from 76.9 µM), for inactives: at the highest dose activation (cAMP increase), hits mostly activators. gsp mutant cells, cAMP HTRF, 30 min; control for the full effect not named in the record. AID 624287. 0.13% of 340,000 active; active = well fitted activation curve with a large enough effect; inconclusive = small, poorly fitted or top-dose-only effect, or another doubt; inactive = no such curve, though single readings can be large or run the other way; cell line not stated here;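 also: phosphodiesterase inhibitor Ro 20-1724 added with compounds to block cAMP breakdown; potency is read from the fitted curve at half-maximal effect; nearly all actives have a fitted effect of over 60% in size; about a fifth of the inactives were tested at one dose only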
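Cells in DMEM/10% FBS with G418 were pretreated with compounds in DMSO plus […] (300 uM stock) for 30 min at 37C. cAMP was measured by HTRF (cAMP-d2 plus anti-cAMP antibody-K) after 30 min at room temperature.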
ClpP mod: qHTS Assay for Activators of ClpP; ATP-dependent Clp protease proteolytic subunit (Bacillus subtilis (strain 168)), P80244; purified B. subtilis ClpP, FRET peptide cleavage, 20 min; Potency, µM (series often up to 57.5 µM), without a hit: at the highest dose activity change, negative = active; 1.9% of 340,000 active; AID 651965, 2013; active = well fitted falling curve with a large enough effect; inconclusive = small, poorly fitted or top-dose-only effect; inactive = no such curve, though single readings can be large or run the other way; also: potency is read from the fitted curve at half-maximal effect; the source files actives as falling curves though it sought activators and does not explain the sign; nearly all actives have a fitted effect of over 65% in size; many hits overshoot -100%
Target sequence (P80244 whole entry, looked up): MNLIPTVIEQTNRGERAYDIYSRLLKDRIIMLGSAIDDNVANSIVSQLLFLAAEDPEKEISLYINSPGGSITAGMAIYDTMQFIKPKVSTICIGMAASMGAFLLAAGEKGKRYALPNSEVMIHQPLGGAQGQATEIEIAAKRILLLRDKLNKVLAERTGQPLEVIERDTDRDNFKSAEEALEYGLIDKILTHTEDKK
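ClpP 10 microg/mL final, pH 8 Tris/KCl buffer with BSA, glycerol, Tween-20; compound pinned in; FRET-FV substrate; RT 20 min; Ex320/Em430; ΔFRET vs ADEP 5.8 microM, DMSO, no enzyme.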
gsp antagonist: gsp mutant antagonism | gsp-mutant cells, cAMP HTRF, 30 min; control for the full effect not named in the record | Potency, µM (titrated, usually from 76.9 µM), for inactives: at the top dose activity change, negative = inhibition, actives largely listed as inhibitors | 0.4% of 340,000 active | AID 624288; active = falling curve of any shape with a large fitted effect; inconclusive = falling curve, mostly with a smaller effect; inactive = flat or rising curve; cell line not stated here;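 also: intracellular cAMP measured with PDE inhibitor Ro 20-1724 present during compound exposure; potency is read from the fitted curve at half-maximal effect; % is scaled to controls: 0 for no effect and ±100 for the full control effect; nearly all actives have a fitted effect of over 65% in size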
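HTRF cAMP measurement after 30 min RT detection following 30 min, 37C compound treatment alongside […] (added as 300 uM solution) in G418-selected cells seeded at 2000/well and grown 16–24 h.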
An asterisk follows results filed as active; ? = inconclusive; · = no result given; & = joins results of further samples; [ ] = remark or other dose.

molecule | CtBP-E1A inh | TRPV1 PAM | Menin-MLL FL inh | Sfp PPTase inh | gsp ag | ClpP mod | gsp antagonist
Cc1ccc(NC(=S)N(Cc2cccc(Br)c2)CC2CCC(C(=O)O)CC2)cc1Cl (stereo not given) | 7 | 1 | 3.1 | 8% | 6%[15.4 µM] | · | ·
CCOc1cc(C(=O)NCC(=O)N/N=C/c2sccc2C)cc(OCC)c1OCC | -3 | -21 | 5.1 | -17% | -10% | -0.9% | 1%
O=C(Nc1nc(-c2cc3ccccc3oc2=O)cs1)c1ccco1 | -4 | 6 | -0.6 | -20% | 1% | 1.0% | -11%
CCOC(=O)c1nn(-c2ccc(F)cc2)c(-c2ccccc2)c1C(=O)c1ccccc1 | 3 | · | -0.5 | 0% | 1% | -3.7% | 7%
O=S(=O)(Nc1cc(S(=O)(=O)N2CCOCC2)ccc1NCC1CCCO1)c1ccc(F)cc1 (stereo not given) | 17 | -25 | · | · | -2% | -0.7% | -1%
Cc1ccccc1NC(=O)Cc1nc(COC(=O)c2cccc([N+](=O)[O-])c2)cs1 | 2 | -10 | · | 13% | -99%[inhibitor] | 1.6% | -9%
CC(=O)n1cc(/C=N/NC(=O)c2ccc(Cl)cc2)c2ccccc21 | · | -3 | 0.9 | 6% | -21% | -1.7% | ?
COc1ccc(OC)c2[nH]c(C(=O)N/N=C/c3ccccc3O)cc12 | · | ? | 7.9 | 10% | 11% | 2.3% | -10%
CNC(=O)C(=O)NCC1CCCN1S(=O)(=O)c1cccs1 (stereo not given) | 3 | -1 | · | · | 18%[15.4 µM] | · | 8%
CCN(CC(=O)Nc1c(F)cccc1F)C(=O)Cc1ccc2c(c1)CCC2 | 0 | 10 | · | · | -10%[15.4 µM] | · | 8%
COc1ccc(-c2cn(-c3ccccc3)nc2C(=O)O)cc1OC | · | 6 | -0.4 | 7% | -24% | 4.0% | -10%
CC(C)c1nnc(NC(=O)C2CCN(C(=O)Nc3ccccc3)CC2)s1 | 6 | 4 | 1.1 | 17% | -18% | · | 8%
Cc1ccc(S(=O)(=O)N2CCOCC2)cc1C(=O)NC1CCSc2ccccc21 (stereo not given) | -2 | 6 | · | 15% | ? | -1.1% | 1%
CCOc1ccc(N2C(=O)CC(NCC#N)C2=O)cc1 (stereo not given) | 1 | 6 | -2.7 | 56µM* | 18% | 0.4% | 10%
Fc1ccccc1-n1c(-c2ccc3ccccc3n2)n[nH]c1=S | -18 | -8 | -0.5 | -27% | 1% | · | -13%

Some of these compounds in order of the gsp ag value, low to high:
mol,gsp ag
CC(=O)n1cc(/C=N/NC(=O)c2ccc(Cl)cc2)c2ccccc21,-21%
CCOC(=O)c1nn(-c2ccc(F)cc2)c(-c2ccccc2)c1C(=O)c1ccccc1,1%
CCOc1ccc(N2C(=O)CC(NCC#N)C2=O)cc1 (stereo not given),18%

(listing goes on)
molecule | CtBP-E1A inh | TRPV1 PAM | Menin-MLL FL inh | Sfp PPTase inh | gsp ag | ClpP mod | gsp antagonist
CC1(c2nnc(-c3ccc(Cl)cc3)o2)CC(c2c(Cl)cccc2Cl)=NO1 (stereo not given) | · | -8 | 2.3 | -5% | 3% | 0.0% | -21%
O=C(Nc1nc2c(F)cccc2s1)c1ccco1 | 1 | -31 | -2.7 | 14% | -42%[inhibitor] | -1.3% | -2%
O=C(c1cccc(Cl)c1)N1CCC(c2nc3ccccc3[nH]2)CC1 | 6 | ? | -0.6 | -10% | -14% | · | -4%
O=C(Nc1ccc(OC(F)(F)F)cc1)c1ccc(S(=O)(=O)N2CCOCC2)o1 | 1 | -24 | 2.9 | 14% | ? | · | ?
O=C(O)CSc1c(O)c2ccccc2[nH]c1=O | · | 7 | 3.8 | 10µM* | 6% | -25% | -27%
Cc1cccc2cc(CNCc3ccccc3)c(Cl)nc12 | · | -7 | 4.8 | 12% | -70%[inhibitor] | -2.6% | -4%
COc1ccc(CCNC(=O)c2ccc(CNc3c(N4CCOCC4)c(=O)c3=O)cc2)cc1OC | 0 | 0 | 1.9 | 11% | 5% | 1.0% | 5%
Cc1ccc(-c2csc3ncnc(N4CCN(S(=O)(=O)c5cccs5)CC4)c23)cc1 | 2 | 1 | · | · | 13% | -11% | -15%
O=C(NCc1ccc2c(c1)OCO2)c1ccc(Cl)c(S(=O)(=O)N2CCOCC2)c1 | 4 | -4 | -0.5 | 3% | 7% | 0.6% | -3%
O=C(COc1ccc2ccccc2c1Br)N1CCOCC1 | 1 | -11 | 4.8 | -3% | 8% | -0.3% | 10%
O=c1c(O[C@@H]2O[C@H](CO)[C@H](O)[C@H](O)[C@H]2O)c(-c2ccc(O)c(O)c2)oc2cc(O)cc(O)c12 | · | -2 | 0.2 | 0% | · | · | ·
COc1ccccc1/C=N/NC(=O)CCn1cnc2ccccc21 | -10 | 2 | -2.5 | 22% | -71%[inhibitor] | -9.7% | -4%
O=C(NCc1ccncc1)C1CCCN(S(=O)(=O)c2cc(Cl)ccc2Cl)C1 (stereo not given) | 6 | -18 | · | · | -2%[15.4 µM] | · | 0%
CN(Cc1ccccc1)S(=O)(=O)c1ccc(NC(=S)NC(=O)C2CCCC2)cc1 | 0 | -29 | 3.1 | 29% | ? | 0.6% | 5%
C[C@@H]1CCC[C@H](C)N1NC(=O)c1ccc(Cl)c(S(N)(=O)=O)c1 | 3 | -5 | -5.6 | 21%&19% | · | -0.4% | 1%

Not a retest: an excerpt of the list.
molecule | CtBP-E1A inh | TRPV1 PAM | Menin-MLL FL inh | Sfp PPTase inh | gsp ag | ClpP mod | gsp antagonist
CN(Cc1ccccc1)S(=O)(=O)c1ccc(NC(=S)NC(=O)C2CCCC2)cc1 | 0 | -29 | 3.1 | 29% | ? | 0.6% | 5%
C[C@@H]1CCC[C@H](C)N1NC(=O)c1ccc(Cl)c(S(N)(=O)=O)c1 | 3 | -5 | -5.6 | 21%&19% | · | -0.4% | 1%

(list continues)
molecule | CtBP-E1A inh | TRPV1 PAM | Menin-MLL FL inh | Sfp PPTase inh | gsp ag | ClpP mod | gsp antagonist
O=[N+]([O-])c1cc(S(=O)(=O)N2CCCCC2)ccc1NCCCN1CCOCC1 | -16 | 5 | -1.7 | 9% | 19%[15.4 µM] | -1.3% | 5%
COC(=O)c1ccc(OC)c(Cn2c(=O)n(C)c(=O)c3ccccc32)c1 | 10 | 3 | -2.5 | 14% | -9%[15.4 µM] | -0.4% | 1%
COC(=O)c1cccc(CN2C(=O)SC(Nc3ccccc3)C2=O)c1 (stereo not given) | 1 | -4 | 22 | 3% | -4%[15.4 µM] | · | -1%
CN1CCC(OC(=O)c2cc3cc(Cl)cc(Cl)c3oc2=O)CC1 | · | 4 | ? | 22% | -3% | ? | 5%
CCOC(=O)CSc1nnc(NC(=O)c2cccc(S(=O)(=O)N3CCCCCC3)c2)s1 | 8 | -1 | -3.0 | 20% | 4% | ? | 8%
O=C(NCCN1CCCc2ccccc21)C1CCC(=O)N(CCc2ccccc2)C1 (stereo not given) | -4 | 3 | · | 6% | 3% | -8.1% | 10%
CCN1C(=O)CC(N2CCN(c3cccc(OC)c3)CC2)C1=O (stereo not given) | -2 | 13 | 2.6 | 9% | -11%[15.4 µM] | 1.8% | 15%
COc1ccc(N2CC(=O)N(c3ccc(OC)c(OC)c3)CC2=O)cc1OC | 2 | -7 | 4.6 | 20% | 1% | ? | -4%
O=C(CN(CC1CCCO1)C(=O)CNS(=O)(=O)c1ccc(F)cc1)NCc1ccco1 (stereo not given) | -6 | 20 | -2.1 | 8% | 2%[15.4 µM] | · | ·
Cc1cccc(OCC(=O)NCc2ccncc2)c1C | 2 | ? | -7.5 | ? | -40%[inhibitor] | 1.5% | 1%
CCCOc1ccc(C2=CSC3=NCCN23)cc1[N+](=O)[O-] | 0 | 18 | 1.5 | 1% | ? | · | 5%
COc1ccc(C(=O)NCc2nnc(SCC(=O)NCc3ccc(F)cc3)o2)cc1 | -6 | -2 | -1.8 | -10% | -7% | -3.3% | -5%
C[C@@H]1CCCCO[C@@H](CN(C)CC2CC2)[C@@H](C)CN([C@H](C)CO)C(=O)c2cc(N(C)C)ccc2O1 | 2 | · | · | · | -40%[inhibitor] | -1.0% | ·
O=C1/C(=C\c2ccc(O)cc2)SC(=S)N1Cc1ccccc1 | -16 | -7 | ? | -10% | ? | · | -2%
O=C(Oc1c(-c2ccccc2)c(=O)n2c3c(cccc13)CC2)c1ccc(F)cc1 | -13 | -8 | 0.7 | ? | 26% | · | -25%

A few values from above:
TRPV1 PAM, O=C(NCCN1CCCc2ccccc21)C1CCC(=O)N(CCc2ccccc2)C1 (stereo not given) stands at 3
CtBP-E1A inh, COc1ccc(N2CC(=O)N(c3ccc(OC)c(OC)c3)CC2=O)cc1OC stands at 2

Next records follow.
molecule | CtBP-E1A inh | TRPV1 PAM | Menin-MLL FL inh | Sfp PPTase inh | gsp ag | ClpP mod | gsp antagonist
CC(C)NC(=O)N(C)C[C@@H]1Oc2c(NC(=O)Nc3ccccc3)cccc2C(=O)N([C@H](C)CO)C[C@H]1C | 9 | · | · | · | · | 0.4% | 4%
CCN(CC)S(=O)(=O)c1ccc(N2CCOCC2)c(NC(=O)C23CC4CC(CC(Cl)(C4)C2)C3)c1 | -1 | 0 | 3.6 | -6% | -44%[inhibitor] | -18% | -23%
CN(C)C1=NC[C@H](Cc2ccccc2)N1CC1CCCCCC1 | 1 | 27 | · | · | -35%[inhibitor] | 0.6% | 11%
CC(C)(C)C(=O)n1nc(-c2ccccc2)oc1=O | -14 | 9 | 2.0 | 16% | -16% | 32µM* | -7%
NC(=O)[C@@H]1CCCCNc2c(F)cc([N+](=O)[O-])cc2C(=O)N[C@@H](CCCN=C(N)N)C(=O)NCC(=O)N1 | · | -6 | -0.8 | 7% | 0% | 0.0% | 11%
CCOC(=O)c1ccccc1NC(=O)COC(=O)CCC1CCCC1 | -4 | -12 | · | · | 1% | -11% | 15%
Cc1ccc([C@@H]2CC=C(C(=O)O)[C@H](c3ccccc3)N2S(=O)(=O)c2ccccc2C)cc1 | 4 | · | · | · | · | 1.8% | -12%
O=C(Nc1ccc(F)cc1F)c1cc(=O)n(-c2ccccc2)c(=O)[nH]1 | · | -1 | 4.7 | -3% | -1% | 0.3% | 2%
